Bfl-1 A1 inh = caspase 3/7 activation in MEF A1-2A-BIM cells, primary screen, A1 inhibitor project, cell-based, luminescence, HTS | Caspase-Glo 3/7 luminescence, 3 h; percent of clofoctol response, vehicle zero | caspase activation, % (no concentration beside the values) | 0.066% of 330,000 active;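 active means over half of replicate activation scores above 10%, or exactly half above 10 with the replicate mean above 10; inconclusive means replicate mean below 10 yet half the replicates above 10; inactive means over half of replicates below 10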;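 further: wells of about 30 µL received 50 nL stock; many hits fall short of the cut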
RanGTP-Imp inh = inhibitors of RanGTP-importin-beta interaction, primary screen, biochemical, FRET, CFP-Ran, YFP-importin-beta, homogeneous; inhibition, % (concentration not given with the values); cell-free CFP-Ran/YFP-importin-beta FRET ratio; 1.1% of 300,000 active; AID 2216, 2009;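 active means most replicates above 15%; inconclusive means exactly half above 15%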;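 further: 0% = DMSO wells and 100% = Ran loaded with GDP instead of GTP; wells of about 40 µL received 100 nL stock; the first replicate is given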
LANA-H2A inh = blockers of LANA interaction with H2A/H2B – biochemical, FP readout, HTS, primary screen; inhibition, % (test concentration not listed); Protein LANA1 (Human herpesvirus 8 type P (isolate GK18)), Q9QR71; cell-free LANA-H2A/H2B peptide, fluorescence polarization; 0.6% of 320,000 active; in the data active means inhibition mostly above about 10%, no sharp cut-off; inactive means mostly below about 6.7%;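 further: stock transfer was 7.5 nL into about 10 µL; 0% = median of vehicle wells and 100% = median of positive control wells; one replicate is shown; the record names a cut of 25% in any replicate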
Target sequence (Q9QR71 whole entry, looked up): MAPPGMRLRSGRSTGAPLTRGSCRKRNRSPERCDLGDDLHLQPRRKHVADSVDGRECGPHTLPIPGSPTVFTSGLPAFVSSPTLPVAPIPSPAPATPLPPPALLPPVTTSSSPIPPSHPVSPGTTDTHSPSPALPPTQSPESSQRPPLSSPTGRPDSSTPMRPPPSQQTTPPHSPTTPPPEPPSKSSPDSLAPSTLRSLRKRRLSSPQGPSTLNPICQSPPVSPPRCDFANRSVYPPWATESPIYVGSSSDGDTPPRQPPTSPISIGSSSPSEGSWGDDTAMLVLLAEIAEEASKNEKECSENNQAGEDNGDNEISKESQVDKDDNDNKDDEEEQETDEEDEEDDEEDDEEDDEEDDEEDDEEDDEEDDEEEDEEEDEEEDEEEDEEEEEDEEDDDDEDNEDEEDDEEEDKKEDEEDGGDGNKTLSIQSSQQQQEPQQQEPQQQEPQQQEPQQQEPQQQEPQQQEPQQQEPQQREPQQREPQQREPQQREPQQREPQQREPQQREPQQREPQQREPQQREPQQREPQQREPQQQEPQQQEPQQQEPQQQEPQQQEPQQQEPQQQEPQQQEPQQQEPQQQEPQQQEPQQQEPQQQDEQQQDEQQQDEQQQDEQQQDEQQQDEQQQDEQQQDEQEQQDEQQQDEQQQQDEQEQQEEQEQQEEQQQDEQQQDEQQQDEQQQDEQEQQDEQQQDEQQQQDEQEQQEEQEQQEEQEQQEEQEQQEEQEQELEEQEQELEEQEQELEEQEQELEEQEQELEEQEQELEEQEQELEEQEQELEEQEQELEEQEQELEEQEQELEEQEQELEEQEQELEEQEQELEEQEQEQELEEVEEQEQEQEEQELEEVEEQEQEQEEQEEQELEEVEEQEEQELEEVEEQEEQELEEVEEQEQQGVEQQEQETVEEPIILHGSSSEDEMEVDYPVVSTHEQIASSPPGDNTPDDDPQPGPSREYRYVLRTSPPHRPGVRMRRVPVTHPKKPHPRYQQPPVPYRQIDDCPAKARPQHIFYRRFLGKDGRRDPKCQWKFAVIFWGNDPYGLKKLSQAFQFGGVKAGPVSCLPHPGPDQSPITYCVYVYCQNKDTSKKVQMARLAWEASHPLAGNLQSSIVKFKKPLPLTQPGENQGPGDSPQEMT
Vif A3G = inhibitors of Vif binding to APOBEC3G peptide, primary screen, biochemical, TR-FRET, GST-Vif 1-94, biotin-A3G peptide, dose response retest (AID 1117319) | Virion infectivity factor (Human immunodeficiency virus type 1 group M subtype B (isolate … | TR-FRET GST-Vif / biotin-A3G peptide binding; higher % means a stronger effect; test concentration not given here; strong numbers were not always called active | 0.57% of 260,000 active | inhibition, %; hits with a dose series show IC50 in µM;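 active means above the screen mean plus three standard deviations and confirmed in dose response; inconclusive means results disagree or hit not tested in dose response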;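 further: Vif residues 1-94 fused to GST binding biotinylated APOBEC3G peptide 110-148; 0% = full assay without inhibitor and 100% = GST in place of GST-Vif; retest series ran down from 100 µM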
T cruzi inh = inhibitors of intracellular T. cruzi growth, primary screen, luminescence, NIH3T3 host cells; T. cruzi beta-gal in NIH3T3, 90 h; inhibition, % (no concentration beside the values); 1.4% of 300,000 active; AID 1885, 2009;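 active means mean inhibition across valid replicates above about 55%, limit read from the data; inconclusive means mean below that limit but half or more replicates reach it; inactive means mean below it, under half of replicates reach it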;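 further: signal also drops with host cell toxicity which is not excluded here; 0% = plate median of DMSO wells and 100% = zero luminescence signal; higher percent means less beta-gal luminescence so fewer parasites; stock transfer was 50 nL into about 50 µL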
Calb FLC = C. albicans growth inhibition with fluconazole, primary screen, CaCi-2 strain, Alamar Blue fluorescence. C. albicans CaCi-2 (fluconazole-resistant clinical isolate) + fluconazole, 48 h. growth inhibition, % (test concentration not listed). 0.57% of 300,000 active. AID 1979, 2009;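 active means most replicates above 75%; inconclusive means exactly half above 75%; inactive means most below 75%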;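 further: all wells also contain fluconazole at 8 µg/ml as a sub-toxic cotreatment; 0% = median of DMSO wells and 100% = median of geldanamycin control wells; wells of about 8 µL received 7.5 nL stock; the first replicate is given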
Beta cell apopt = inhibitors of cytokine-induced beta cell apoptosis, primary screen, luminescence | INS-1E cytokine-induced death, ATP luminescence, 48 h; percent of positive-control rescue, neutral wells zero | protection from apoptosis, % (no concentration beside the values) | 0.8% of 300,000 active | AID 435005, 2010;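 active means all replicates at 75% or more, or half of them and the mean; inconclusive means half reach 75% but not the mean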;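 further: 0% = cytokine-treated negative control wells and 100% = positive control rescue; higher means more ATP so stronger rescue from cytokine killing; wells of about 40 µL received 100 nL stock; the first replicate is given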
MLL AF4-AF9 inh = inhibitors of AF4 peptide binding to AF9, primary screen, biochemical, AlphaScreen, biotin-AF4 peptide, FLAG-AF9, single point; Protein AF-9 (Homo sapiens), P42568; 0.47% of 350,000 active; inhibition, % at 10 µM; AID 651704, 2012;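 active means every replicate reaching a set inhibition limit, whatever the replicate mean, cut at about 25% in these data; inconclusive means mean inhibition reaches that limit but some replicates miss it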;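 further: 0% = plate neutral control median and 100% = total signal loss; the record names both 10 and 1 µM as test concentration; the first replicate is given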
Active calls of the source: *; ? = inconclusive; · = not tested or not shown. This is a random part of the collection; 4.3% or so of the library scored in one or more.

SMILES	Bfl-1 A1 inh	RanGTP-Imp inh	LANA-H2A inh	Vif A3G	T cruzi inh	Calb FLC	Beta cell apopt	MLL AF4-AF9 inh
O=C(NCCn1c(C(F)(F)F)nc2cc(C(F)(F)F)ccc21)[C@H]1CCCN1c1nc(CN2CCCCC2)cs1	0.0	-1.2	2.8	·	-10	-13	-12	·
COc1cccc(-c2nc(-c3ccccc3)[nH]c(=O)c2C#N)c1	-0.6	?	-0.8	-5%	0	27	5	·
OCC1(CCOc2ccccc2)CCN(CC2=Cc3cc(Cl)ccc3OC2)CC1	-0.1	-3.5	-3.5	·	26	22	-1	2.1
O=[N+]([O-])c1cc2c(c(CSc3nnnn3-c3ccc(O)cc3)c1)OCOC2	0.4	-1.2	-3.2	?	-10	12	2	-2.4
CN(C(=O)COC(=O)c1cc2ccccc2cc1O)c1c(N)n(Cc2ccccc2)c(=O)[nH]c1=O	-0.4	2.6	-0.8	-2%	-4	·	-5	-1.5
CC1C/C(=N/NC(=O)c2cccs2)CC(C)(C)C1 (stereo not drawn)	-0.1	-1.7	4.5	?	-6	-8	-1	·
CC(C)(C)C(=O)CC1(O)C(=O)N(Cc2ccc(Cl)cc2)c2ccccc21 (stereo not drawn)	-0.1	-3.5	-2.3	8%	3	-8	-2	·
Cc1ccc(-c2csc3ncnc(-n4nc(C)cc4N)c23)cc1	-0.4	-2.4	-0.9	-1%	2	-5	-3	·
CCOC(=O)C1CCN(C(=O)c2ccccc2NC(C)=O)CC1	-0.5	1.8	-2.6	22%	-1	-7	-4	·
C/C(=N/NC(=O)CN1CCN(Cc2ccccc2)CC1)c1ccc([N+](=O)[O-])cc1	0.1	4.3	-0.6	24%	10	27	·	1.1
Cc1c(C(=O)OC(C)C)nnn1-c1nonc1N	1.4	-2.8	2.5	22%	-2	3	1	·
CSc1ccc(CN(C)C(=O)CNC(=O)CNS(=O)(=O)c2ccc(C)c(C)c2)cc1	0.7	-1.9	10	·	1	-1	3	0.5
Fc1ccc2cnc(C3=CCCCC3)cc2c1	-4.4	·	0.6	·	·	·	1	0.0
COc1ccc(OCCOC(=O)C(C)NS(=O)(=O)c2ccc(NC(C)=O)cc2)cc1 (stereo not drawn)	-0.7	·	1.3	·	·	·	1	-0.3
CC(C)C(=O)N1CCN(c2ccccc2NC(=O)c2cccc3ccccc23)CC1	-0.5	0.1	8.7	15%	40	14	5	-1.5
COc1ccc(C(=O)Nc2cc3c(oc2=O)CCCC3=O)cc1	0.3	-1.1	2.4	29%	-16	0	-4	-1.5
CCOc1ccc(N2CC(C(=O)Nc3ccc(OC)c(S(=O)(=O)N4CCCCC4)c3)CC2=O)cc1 (stereo not drawn)	0.1	6.0	-1.5	8%	1	42	5	-2.5
NC(=O)N/N=C/c1ccccc1OCC(=O)NCc1ccccc1	-0.2	5.1	1.1	·	10	-22	-4	·
COC(=O)c1c(C)[nH]c(C(C)=O)c1C	-0.3	0.2	-2.2	10%	8	-6	-8	·
CCOCCCn1c(=S)[nH]c2cc(C(=O)N3CCN(c4ccccc4)CC3)ccc2c1=O	1.4	0.3	0.5	·	5	-4	6	0.4
COc1cccc(OC)c1C(=O)Oc1ccc2c(c1)O/C(=C\c1ccncc1)C2=O	1.4	-7.6	0.2	30%	9	2	4	5.4
COc1ccccc1NC(=O)c1ccc(S(=O)(=O)N2CCCC2)cc1	3.5	-1.7	-3.4	-2%	-9	1	-2	0.3
CCc1[nH]nc2c1C(c1ccc(Br)s1)C(C#N)=C(N)O2 (stereo not drawn)	1.1	·	6.5	6%	·	·	-10	·
Cc1ccccc1NCN1C(=O)C2CCC(C)(C1=O)C2(C)C (stereo not drawn)	0.6	2.8	0.0	?	-2	1	0	3.8
O=C(Oc1ccc(Cl)cc1)N1CCCCC1	0.0	2.6	0.7	2%	-17	-19	-4	·
C=C(C)CNC(=S)NNC(=O)c1ccncc1	1.6	-1.4	2.2	-3%	0	32	-3	-2.6
COc1cccc(C(=O)OCCN(C)C(C)(C)C)c1	0.5	-0.2	0.7	12%	-2	-1	-4	·
Cc1ccccc1C(=O)N1CCC(C(=O)Nc2ccccc2Cl)CC1	2.4	4.7	1.2	·	6	2	·	-6.6
CN(C(=S)Nc1ccc(F)cc1)C(c1ccccc1)c1ccccc1	0.8	0.9	-0.2	0%	-6	-3	-6	-0.2
COc1cccc(-c2sc3ccccc3c2-c2ccc(OCCN(C)C)cc2)c1	-1.3	·	3.0	·	·	·	20	29*
CN(CC(=O)Nc1ccccc1Cl)C(=O)c1ccccc1Sc1ccccc1C#N	-0.9	-0.7	5.5	5%	-12	1	2	?
N#Cc1ccccc1CSc1nnc(Cc2ccccc2)o1	0.2	2.4	1.4	-2%	12	5	0	-1.8
CCOc1ccc(CCNC(=O)CCNS(=O)(=O)c2ccc(Br)cc2)cc1OCC	-0.3	-0.7	-3.0	·	15	7	-2	0.1
NNS(=O)(=O)c1ccc(N2CCCC2=O)c([N+](=O)[O-])c1	0.7	-0.5	-0.1	25%	-10	-1	-5	-2.4
Cc1ccc(N(CC(=O)Nc2c(C)n(C)n(-c3ccccc3)c2=O)S(C)(=O)=O)c(C)c1	-0.1	?	-4.3	18%	-4	?	-4	-0.9
CCOC(=O)CCC(NC(=O)CC(=O)NC(CCC(=O)OCC)C(=O)OCC)C(=O)OCC (stereo not drawn)	2.4	-0.8	-1.8	9%	-10	-6	-3	-0.6
Cc1ccc2c(CN(C)Cc3ccc(Cl)cc3)cc(=O)oc2c1	-0.4	-2.1	-1.4	·	22	0	·	4.7
Nc1cc(=O)[nH]c(SCC(=O)N2CCc3ccccc3C2)n1	0.3	·	3.1	-3%	-8	6	1	·
CCOC(=O)c1cc(C(=O)OCC)c2ccccn2c1=O	0.4	66*	-1.3	0%	-5	-1	-8	·
CS(=O)(=O)N(CC(=O)NCc1ccncc1)c1cc(Cl)ccc1Cl	0.1	-0.9	-6.3	·	-7	-5	-2	0.1
CCc1cc(CNC(=O)CC2C(=O)NCCN2Cc2c(F)cccc2Cl)on1 (stereo not drawn)	-0.7	-3.6	1.0	12%	1	-1	-5	-0.3
CCC(=O)Nc1ccc(-c2ccc(N3CCCCC3)nn2)cc1	-4.3	-1.6	0.4	·	8	8	4	0.2
Clc1ccc(CN2CCN(c3ncccn3)CC2)cc1Cl	-0.2	5.6	3.1	-3%	1	23	-1	2.2
COC(=O)N[C@@H]1C[C@H]2[C@@H]3CC[C@H]4C[C@@H](OC)CC[C@]4(C)[C@H]3CC[C@@]12C	-0.4	·	2.1	·	·	·	-6	2.7
Clc1ccc(-c2nnc(-c3ccccc3)nc2N2CCSCC2)cc1	1.7	3.1	-2.3	-5%	34	2	0	·
NCCC(=O)NCCc1cnc[nH]1	0.5	·	2.7	·	·	·	-5	?
CC(C)C(OC(=O)c1cccc(S(=O)(=O)NCC(F)(F)F)c1)C(=O)NC(N)=O (stereo not drawn)	0.4	?	2.1	32%	-10	-1	-6	-3.0
O=C(Cn1cnc2c(OCc3ccccc3)ncnc21)N[C@H](CO)Cc1cc2ccccc2[nH]1	1.2	·	0.0	-5%	·	·	4	-2.1
COc1ccc(C2C(C(C)=O)=C(O)C(=O)N2c2nccs2)cc1 (stereo not drawn)	-1.1	1.4	-1.4	-1%	-15	2	2	·
CC(=O)NCCOc1cccc2ccccc12	0.7	?	-5.6	5%	-18	1	2	·
Cc1ccc(C(=O)NCC(=O)OCC(=O)Nc2ccccc2[N+](=O)[O-])cc1	0.1	0.6	-3.1	7%	-1	0	-7	-1.1
CCc1nc2cccnc2n1-c1ccc(CC(=O)O)cc1	3.2	-0.7	2.9	6%	-11	-7	-7	-0.4
O=C(OC(C(=O)Nc1ccc(Cl)c(C(F)(F)F)c1)c1ccccc1)C1=COCCO1 (stereo not drawn)	0.2	2.8	-2.2	-4%	12	-3	-10	·
N#C/C(=C1\CCCN1)c1nc(-c2ccccc2)cs1	1.3	-1.7	4.4	2%	17	1	0	·
O=C(NC(=S)NC1CCS(=O)(=O)C1)c1ccccc1 (stereo not drawn)	0.6	-1.5	-2.7	-2%	-6	-1	3	0.7
CN1C(=O)CC(C(=O)O)SC1=Nc1ccc(F)cc1 (stereo not drawn)	0.2	-3.6	1.5	5%	11	0	1	-54
CN(C)Cc1nnnn1-c1ccccc1	0.4	3.2	-9.1	3%	-6	2	-4	-2.8
CC(=O)Nc1sc(/C(C#N)=C/c2ccc(Cl)c(Cl)c2)nc1-c1ccc(C)cc1	·	-435	·	-4%	10	?	·	-1.3
CCn1c(SCC(=O)NCC2CCCO2)nnc1-c1ccc(S(=O)(=O)N2CCN(C)CC2)cc1 (stereo not drawn)	0.2	0.6	-2.4	12%	-22	0	-6	2.6
COc1ccc(C2=NN(C(=O)c3cccc([N+](=O)[O-])c3)C(c3cccc([N+](=O)[O-])c3)C2)cc1 (stereo not drawn)	-0.1	3.7	-1.2	2%	25	28	3	·

(more compounds)
SMILES	Bfl-1 A1 inh	RanGTP-Imp inh	LANA-H2A inh	Vif A3G	T cruzi inh	Calb FLC	Beta cell apopt	MLL AF4-AF9 inh
O=S(=O)(NCc1ccco1)c1ccc(Cl)cc1Cl	1.4	-2.3	-2.9	·	-5	7	-1	0.7
CCOC(=O)c1cc(S(=O)(=O)NC2CCC(C)CC2)cn1C (stereo not drawn)	-0.5	1.7	3.2	·	-6	2	6	-0.4
Cc1ccc2c(c1)N(S(=O)(=O)c1cc(-c3onc(C)c3C)ccc1C)CCO2	1.5	2.7	6.3	·	13	8	13	0.0
Cc1nnc(SCC(=O)c2c(N)n(C3CC3)c(=O)[nH]c2=O)n1C	0.2	·	4.5	2%	·	·	-2	1.6
CC(C)n1cc(CN2CCC(C(=O)Nc3cccc(-c4cscn4)c3)CC2)cn1	·	2.2	·	6%	7	8	·	4.8
Cc1ccc(C)c(N2CCN(C(=O)CCC(=O)Nc3nnc(CC(C)C)s3)CC2)c1	0.7	1.1	1.9	·	10	-2	-1	-5.5
Cc1cc(NC(=O)CSc2nc3ccccc3c(=O)n2CCCC(=O)NCc2ccccc2)n[nH]1	0.5	5.0	3.5	1%	4	7	·	·
Cc1ccc(OCC(=O)N(Cc2cccc(Cl)c2)C2CCS(=O)(=O)C2)cc1C (stereo not drawn)	-0.3	0.9	2.0	·	18	·	4	-2.0
O=C(COC(=O)c1ccccc1C(=O)N1CCN(c2ccccc2)CC1)Nc1ccccc1	1.4	-1.9	1.3	0%	-3	-6	-2	3.8
CCCC(=O)N(CCc1ccccc1)Cc1nc2ccccc2c(=O)[nH]1	-2.0	-3.6	-0.9	4%	-1	-8	·	·
CCN(CC(=O)NCc1ccc(F)cc1)C(=O)/C=C/c1ccc(OC)c(S(=O)(=O)NC(C)C)c1	0.7	-0.6	3.5	-2%	-15	-6	9	-0.4

Screening results deposited in PubChem BioAssay by several laboratories.
